# gsp ag: gsp mutant agonism. gsp mutant cells, cAMP HTRF, 30 min; control for the full effect not named in the record. Potency, µM (top dose mostly 76.9 µM), without a hit: at the top dose activation (cAMP increase), most hits filed as activators. hit rate 0.13% among 340,000. AID 624287; active = well fitted activation curve with a large enough effect; inconclusive = small, poorly fitted or top-dose-only effect, or another doubt; inactive = no such curve, though single readings can be large or run the other way; cell line not stated here;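 further: phosphodiesterase inhibitor Ro 20-1724 added with compounds to block cAMP breakdown; potency means the concentration at half of the fitted maximal effect; nearly all actives have a fitted effect of over 60% in size; about a fifth of the inactives were tested at one dose only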
#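 Cells in DMEM/10% FBS with G418 were pretreated with compounds in DMSO plus […] (300 uM stock) for 30 min at 37C. cAMP was measured by HTRF (cAMP-d2 plus anti-cAMP antibody-K) after 30 min at room temperature.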
# TRPML1 inh: human mucolipin-1 channel inhibition | activity change, negative = inhibition, % (no concentration beside the values) | Q9GZU1 | TRPML1-inducible cells, Ca2+ dye fluorescence, FDSS; stronger effect = lower value; inhibition of EC80 agonist-evoked calcium signal | hit rate 0.02% among 390,000; in the data active means activity change below about -50%; inconclusive means about -30% to -50%; inactive means above about -30%;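 further: stimulus is agonist 54-4 at its EC80 concentration; on the % scale 0 is the no-effect control and ±100 the full control effect; compound concentration not given in the record; the text of the record puts the active cut at -80%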
# Target sequence (Q9GZU1 whole entry, looked up): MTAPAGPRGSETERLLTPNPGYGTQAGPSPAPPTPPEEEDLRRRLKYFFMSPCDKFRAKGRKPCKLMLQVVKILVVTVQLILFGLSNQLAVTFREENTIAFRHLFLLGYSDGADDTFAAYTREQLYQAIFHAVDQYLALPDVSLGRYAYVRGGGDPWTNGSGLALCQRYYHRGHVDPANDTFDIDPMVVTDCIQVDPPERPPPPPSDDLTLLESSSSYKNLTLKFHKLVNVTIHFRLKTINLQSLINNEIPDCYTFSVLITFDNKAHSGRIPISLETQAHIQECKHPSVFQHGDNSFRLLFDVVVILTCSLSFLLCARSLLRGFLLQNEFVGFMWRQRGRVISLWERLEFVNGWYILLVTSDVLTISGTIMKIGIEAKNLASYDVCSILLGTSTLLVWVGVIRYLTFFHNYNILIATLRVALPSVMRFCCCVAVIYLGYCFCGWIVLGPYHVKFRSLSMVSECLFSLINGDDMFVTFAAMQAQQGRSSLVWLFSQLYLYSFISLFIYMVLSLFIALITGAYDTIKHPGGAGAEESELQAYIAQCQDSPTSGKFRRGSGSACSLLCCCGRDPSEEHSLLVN
#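 Tet-induced TRPML1-DL cells loaded with Ca8 no-wash calcium dye were read kinetically on FDSS. Compound addition was followed by EC80 agonist 54-4 (4 uM final); inhibition was read over 110 s.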
# gsp antagonist: gsp mutant antagonism; hit rate 0.4% among 340,000; AID 624288; Potency, µM (titrated, usually from 76.9 µM), for inactives: at the top dose activity change, negative = inhibition, usual class: inhibitors; gsp-mutant cells, cAMP HTRF, 30 min; control for the full effect not named in the record; active = falling curve of any shape with a large fitted effect; inconclusive = falling curve, mostly with a smaller effect; inactive = flat or rising curve; cell line not stated here;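 further: intracellular cAMP measured with PDE inhibitor Ro 20-1724 present during compound exposure; potency means the concentration at half of the fitted maximal effect; on the % scale 0 is the no-effect control and ±100 the full control effect; nearly all actives have a fitted effect of over 65% in size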
#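 HTRF cAMP measurement after 30 min RT detection following 30 min, 37C compound treatment alongside […] (added as 300 uM solution) in G418-selected cells seeded at 2000/well and grown 16–24 h.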
# Sfp inh: inhibitors of Bacillus subtilis Sfp phosphopantetheinyl transferase; Potency, µM, for inactives: max response, negative = inhibition, hits mostly inhibitors; AID 1490; Q9F4F7; hit rate 3.5% among 310,000; Biochemical Sfp PPTase activity, qHTS; active means well fitted inhibition curve with a large enough effect; inconclusive means small, poorly fitted or top-dose-only effect, or another doubt; inactive means no such curve, though single readings can be large or run the other way;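 further: the enzyme is Sfp with the accession as filed and its product quenches rhodamine fluorescence; potency means the concentration at half of the fitted maximal effect; 0% = enzyme reaction without inhibitor and -100% = no enzyme wells; top concentration of the series not given in the record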
#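 With Hepes-Na pH 7.6 buffer containing 10 mM MgCl2, Sfp (15 nM) modified BHQ-2-YbbR (12.5 uM) using rhodamine-CoA (5 uM). Two reads 30 minutes apart at 525/598 nm yielded each well's rate.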
# Menin MLL FP FL: menin-MLL binding inhibition, fluorescein peptide; Fluorescence polarization, fluorescein-MLL peptide displacement from menin; FP activity change, % at 61.4 µM; 290,000 tested, under 10 active; inconclusive = falling polarisation curve, or a change in total fluorescence; inactive = total fluorescence flat and polarisation flat or rising; no compound was filed as active; the % refers to the polarisation; negative = inhibition;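 further: % of control where 0% means no effect; inhibitors lower the polarisation; unlabelled MLL peptide was the positive control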
# TRPV1 potentiator: human TRPV1 potentiation; Q8NER1; TRPV1-expressing cells, Fluo-8 calcium influx, capsaicin EC20 potentiation; host cell line not named in the record; control for the full effect not named in the record; potentiation, % at 8.33 µM; hit rate 0.02% among 320,000; active means potentiation above 80%; inconclusive means 30% to 80%; inactive means below 30%; further: 0% is about no effect
#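 Cells expressing TRPV1 were dye-loaded with Fluo-8 and read kinetically: 10 s baseline, 3 min after compound (agonist portion), then 2 min after EC20 capsaicin (allosteric enhancer portion). Calcium-bound dye fluorescence at 480/520 nm.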
# ClpP mod: qHTS Assay for Activators of ClpP; ATP-dependent Clp protease proteolytic subunit (Bacillus subtilis (strain 168)), P80244; purified B. subtilis ClpP, FRET peptide cleavage, 20 min; Potency, µM (titrated, usually from 57.5 µM), for inactives: top-dose activity change, negative = active; hit rate 1.9% among 340,000; AID 651965, 2013; active = well fitted falling curve with a large enough effect; inconclusive = small, poorly fitted or top-dose-only effect; inactive = no such curve, though single readings can be large or run the other way; further: potency means the concentration at half of the fitted maximal effect; the source files actives as falling curves though it sought activators and does not explain the sign; nearly all actives have a fitted effect of over 65% in size; many hits overshoot -100%
# Target sequence (P80244 whole entry, looked up): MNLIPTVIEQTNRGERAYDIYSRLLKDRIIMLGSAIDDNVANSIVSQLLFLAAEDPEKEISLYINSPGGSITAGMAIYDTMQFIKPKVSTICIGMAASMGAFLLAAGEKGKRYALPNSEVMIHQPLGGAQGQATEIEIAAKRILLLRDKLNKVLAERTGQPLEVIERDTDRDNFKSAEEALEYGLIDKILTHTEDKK
#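 Purified B. subtilis ClpP, 10 microg/mL final in Tris/HCl pH8 with KCl, BSA, glycerol and Tween-20, cleaved an Abz/nitrotyrosine-quenched decapeptide. Fluorescence (ex 320, em 430) was read at 0 and 20 min at room temperature. Delta was normalized to 5.8 microM ADEP and DMSO/no-enzyme controls.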
# * = called active by the depositor; ? = inconclusive; nt = not tested or not shown; [ ] = remark or other dose. Hits appear at their usual frequency; overall some 4.9% were active at least once.
SMILES,gsp ag,TRPML1 inh,gsp antagonist,Sfp inh,Menin MLL FP FL,TRPV1 potentiator,ClpP mod
NS(=O)(=O)c1cccc(NC(=O)COC(=O)c2cc([N+](=O)[O-])ccc2N2CCCC2)c1,-2%[15.4 µM],-5,-5%,nt,nt,nt,0.2%
Cc1ccc(NC(=O)/C=C/c2ccco2)cc1S(=O)(=O)N1CCCCCC1,6%,-1,?,nt,nt,nt,-3.4%
CCN(CC(=O)Nc1ccc(NC(C)=O)cc1)C(=O)/C=C/c1c(C)nn(-c2ccc(F)cc2)c1Cl,-21%,20,?,nt,nt,4,-3.4%
CN1C(=O)CC2(CC(=O)N(Cc3ccccc3)C2)C1=O (stereo not drawn),-6%,9,10%,17%,-0.9,2,-1.7%
OC(c1cc(-c2cccc(Cl)c2)nc2ccccc12)C1CCCCN1 (stereo not drawn),?,6,-2%,nt,nt,nt,nt
CC(OC(=O)CCOc1ccccc1)C(=O)NC1CC1 (stereo not drawn),-3%[15.4 µM],-6,7%,nt,nt,9,0.1%
Cc1nnc(N2CCN(Cc3ccccc3)CC2)[nH]c1=O,-2%,59,13%,21%,2.5,11,-0.7%
CC(O)Cn1c(N2CCCC2)nc2c1c(=O)[nH]c(=O)n2C (stereo not drawn),3%[15.4 µM],-12,3%,6%,-1.4,0,1.4%
Cc1cccc(N2CCN(C(=O)c3cc(S(=O)(=O)N(C)C)ccc3N3CCCC3)CC2)c1C,4%[15.4 µM],25,?,4%,-1.2,7,-0.1%
Cc1ccc(NC(=O)N2CCC(NC(=O)c3ccccc3C)CC2)cc1,-6%,15,0%,12%,0.1,-17,-1.8%
CCn1ncc(Br)c1C(=O)Nc1ccccc1OC,-8%[15.4 µM],14,3%,8%,4.6,-17,nt
Cc1cccc(NC(=O)c2ccc(COc3ccc(Cl)cc3Cl)o2)n1,6%,29,6%,?,4.6,10,-2.2%
CC(C)(C)N1CC(C(=O)Nc2ccc(C#N)cc2)CC1=O (stereo not drawn),-1%[15.4 µM],-6,-1%,16%,-1.9,-9,1.6%
Cc1ccc(C(=O)N2CCN(S(=O)(=O)c3ccccc3)CC2)cc1,8%[15.4 µM],-9,-2%,4%,-4.4,21,nt
Cc1ccnc(SCc2cc(=O)c(OC(=O)c3ccccc3)co2)n1,19%,-4,-2%,7%,-2.5,-13,0.7%
COc1cccc(C2CC(C(F)(F)F)n3nc(C(=O)Nc4c(C)n(C)n(-c5ccccc5)c4=O)cc3N2)c1 (stereo not drawn),-8%,-5,3%,21%,2.5,1,nt
Cc1ccc(CNC(=O)COC(=O)c2ccc(Cl)c(N)c2)cc1,13%[15.4 µM],-11,14%,10%,6.9,-5,-1.0%
CC(=O)N(C)c1ccc(NCc2cc(=O)oc3cc(C)c(O)cc23)cc1,-8%,-29,-10%,0%,-1.1,5,-0.8%
COC(=O)c1sc(C(C)(C)C)cc1CS(=O)(=O)c1ccccn1,26%,-7,5%,1%,3.3,-23,-0.1%
CN1CCN(C(=O)c2ccc3c(c2)N(C)C(=O)/C(=C/c2cccc(Cl)c2)S3)CC1,-22%,-2,-7%,-22%,nt,-1,-2.3%
c1cc2c(cc1Oc1nc(N3CCOCC3)nc(N3CCOCC3)n1)OCO2,-2%,-8,-1%,-2%,0.3,-20,-12%
COc1cc(NC(=O)CN2CCN(C(=O)C3CCCO3)CC2)c(OC)cc1Cl (stereo not drawn),-2%,11,-2%,2%,-2.3,4,-0.8%
Cc1nc2ccccc2n1C(=O)N1CCOCC1,-26%,36,15%,5%,3.4,29,1.1%
NC(=O)c1ccc[n+](CC(=O)c2ccc(Br)cc2)c1,?,4,2%,6%,-2.2,4,3.0%
CCOC(=O)COc1cc(O)c2c(=O)cc(-c3ccccc3)oc2c1,9%[15.4 µM],-11,-6%,-3%,-7.7,5,nt
O=C(Nc1ccccc1)c1ccc(-c2ccccc2C(F)(F)F)o1,nt,29,-19%,-20%,6.3,-3,-5.8%
CC(C)N(C(=O)c1nn(C)c2c1CSc1ccccc1-2)C1CCCCC1,27%,15,-19%,-3%,nt,1,-1.9%
CC(=NC1CCCCC1)C1=C(O)c2ccccc2C1=O,-60%[inhibitor],7,-25%,-17%,3.6,nt,0.6%
Cc1onc(-c2ccccc2)c1C(=O)Nc1c(C)n(C)n(-c2ccccc2)c1=O,-15%,-8,5%,-5%,0.6,-3,0.6%
C[C@]1(C(=O)O)C=C[C@@H](Cc2ccccc2)N1C(=O)c1ccccc1,5%,-8,0%,20%,-0.8,14,0.9%
COc1ccc(S(=O)(=O)NC(C)C(=O)NCc2cccnc2)cc1C (stereo not drawn),-25%,-7,5%,nt,nt,?,-3.0%
O=C1C(Cc2ccc(Br)cc2)SC(=Nc2ccccc2)N1c1ccccc1 (stereo not drawn),5%,4,-3%,-26%,1.9,19,-5.4%
O=S(=O)(c1ccccc1F)N1CCN(c2nc(-c3cccnc3)nc3ccccc23)CC1,?,-12,-24%,nt,nt,5,-0.7%
CCc1ccc(NC(=O)CO/N=C(\C)c2cc3ccccc3o2)cc1,4%,2,-13%,-2%,0.0,3,nt
COc1cccc(OC)c1C(=O)Nc1ccc(NC(=O)c2ccco2)cc1,0%,19,7%,9%,0.8,3,0.2%
O=C(NCC(c1cccs1)N1CCOCC1)c1cc(S(=O)(=O)N2CCOCC2)ccc1Cl (stereo not drawn),-4%,-18,-1%,nt,nt,nt,-2.7%
Cc1c(C(=O)NNc2c(Cl)cccc2Cl)n(C)oc1=O,-15%,-12,5%,-2%,0.0,-9,-1.1%
O=C(CSc1nnc(C2CC2)n1C1CC1)c1ccc(F)cc1,?,2,9%,nt,nt,1,-0.1%
O=C(Nc1ccc(NC(=O)c2ccc(S(=O)(=O)c3ccccc3)cc2)cc1)c1ccccc1,?,11,7%,0%,3.2,15,-4.3%
O=C1NC(=O)C(CC(=O)N(Cc2cccs2)C2(C(=O)NC3CCCC3)CCCCC2)N1 (stereo not drawn),-25%,-8,9%,-7%,1.7,2,-3.6%
CN(O)/C=C1\C(=O)Nc2ccccc21,?,-13,?,50µM*,0.0,7,-2.0%
COc1ccc(OC)c(NC(=S)NCc2cccs2)c1,-26%,-13,4%,17%,6.6,0,-0.3%
Cn1c(=O)c2c(ncn2CC(=O)OCC(=O)Nc2cc(Cl)ccc2Cl)n(C)c1=O,4%,-6,5%,16%,4.7,-1,1.9%
CCCCNCc1cc(OC)c(OCC(N)=O)cc1Br,-12%,-4,2%,24%,-1.9,28,1.5%
Cc1ccc(C2CC(c3cccc(C)c3)n3ncnc3N2)cc1 (stereo not drawn),-7%,19,-5%,6%,0.8,nt,-1.5%
Cc1ccc([N+](=O)[O-])cc1S(=O)(=O)n1ccnc1C,11%[15.4 µM],10,7%,9%,-1.9,0,nt
Cc1ccc(OCCCn2c(=O)oc3ccccc32)cc1,10%,54,-1%,-10%,4.0,-24,-4.9%
CCN1CCN(CC(=O)Nc2ccc3c(c2)OCO3)C(=O)C1=O,-4%,0,17%,25%,0.0,15,-1.2%
CC(Sc1nnc2ccccn12)C(=O)Nc1ccc(Cl)cn1 (stereo not drawn),-27%,-2,12%,9%,-0.7,10,-2.7%
CSc1ccccc1C(=O)C1CCCN(C(=O)c2cncs2)C1 (stereo not drawn),?,4,-19%,11%,0.8,9,-5.3%
COc1ccc(C(=O)Nc2cccc(-c3ccc4nncn4n3)c2)cc1,15%[15.4 µM],12,5%,8%,5.5,-5,nt
CC1CCCN(S(=O)(=O)c2ccc(C(=O)Nc3sc4c(c3C(N)=O)CCN(C)C4)cc2)C1 (stereo not drawn),27%,15,-6%,18%,nt,-8,-4.0%
CC1CC(C)CN(CCCNC(=O)c2csc3c2CCCC3)C1 (stereo not drawn),-57%[inhibitor],-5,16%,22%,-1.6,7,-2.2%
O=C(O)CSCC(=O)N1CCCN(c2nccc(C(F)(F)F)n2)CC1,?,nt,11%,15%,0.0,?,-6.8%
Clc1nc(NC2CCCCC2)c2cn[nH]c2n1,-15%,0,0%,nt,nt,nt,nt
CCNc1ccc(S(=O)(=O)N(C)C)cc1NCC(=O)Nc1c(F)cccc1F,-6%,-14,-27%,10%,6.7,-4,-1.4%
CN(CC(=O)Nc1ccc(N2CCOCC2)cc1)CC(=O)Nc1ccccc1[N+](=O)[O-],-2%[15.4 µM],0,8%,-2%,1.7,-3,1.0%
COc1cc(C2=Nc3ccc(Br)cc3C(c3ccccc3)N2CC(=O)NN)cc(OC)c1OC (stereo not drawn),17%,-16,-10%,3%,-5.0,nt,nt
CCOc1ccc2nc(NC(=O)C3CCCO3)sc2c1 (stereo not drawn),-50%[inhibitor],-27,-8%,19%,1.4,4,-0.2%
Cc1ccc(OCCC(=O)Nc2ccc(F)c(Cl)c2)cc1,-33%[inhibitor],29,5%,13%,5.5,-12,-1.8%
# Next results.
SMILES,gsp ag,TRPML1 inh,gsp antagonist,Sfp inh,Menin MLL FP FL,TRPV1 potentiator,ClpP mod
O=C(Cn1cnnn1)NCc1ccccc1,?,-9,3%,11%,-2.5,2,nt
O=C(NC1CCN(S(=O)(=O)c2ccccc2F)CC1)c1cccnc1,16%,-7,0%,13%,0.4,1,nt
CSCCC(NC(=O)COc1ccccc1)C(=O)N1CCCC(C(F)(F)F)C1 (stereo not drawn),-1%,8,4%,nt,nt,-6,-3.7%
Cc1ccc(NC(=O)c2ccc(COc3ccccc3)o2)nc1,4%,2,-18%,3%,nt,-5,1.3%
COc1cc(C(=S)NCc2ccccc2)cc(Br)c1O,10%[15.4 µM],-6,11%,8.9µM*,3.1,5,nt

# Among those listed so far, 2 contain a tert-butyl group:
SMILES,gsp ag,TRPML1 inh,gsp antagonist,Sfp inh,Menin MLL FP FL,TRPV1 potentiator,ClpP mod
CC(C)(C)N1CC(C(=O)Nc2ccc(C#N)cc2)CC1=O (stereo not drawn),-1%[15.4 µM],-6,-1%,16%,-1.9,-9,1.6%
COC(=O)c1sc(C(C)(C)C)cc1CS(=O)(=O)c1ccccn1,26%,-7,5%,1%,3.3,-23,-0.1%
